Assay outcomes as filed in PubChem.
RE007 growth inh – less growth of the S. pombe RE007 Vpr strain | Potency, µM (doses to about 92.2 µM), inactives show at the top dose activity change, negative = less growth | actives 0.21% (n = 360,000) | S. pombe RE007 Vpr strain, BacTiter-Glo ATP luminescence, 24 h; control for the full effect not named in the record; active = well fitted falling curve with a large enough effect; inconclusive = small, poorly fitted or top-dose-only effect; inactive = no such curve, though single readings can be large or run the other way;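 further: nearly all actives have a fitted effect of over 50% in size; the assay follows cell death caused by Vpr and the record does not say whether a fall means rescue or toxicity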
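Fission yeast RE007 carrying one integrated HIV-1 vpr copy, seeded at OD 0.01 in PMG+AL medium with 23 nL pinned compound. Grown 24 h at 30 degrees; viability read by BacTiter-Glo luminescence after 5 min.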
StopGo reporter – lowers the luciferase signal of an FMDV 2A StopGo reporter; AID 1159524; Potency, µM (titrated, usually from 57.9 µM), without a hit: at the highest dose signal change, negative = less light; human cells with a luciferase reporter of 2A StopGo recoding; control for the full effect not named in the record; actives 1.2% (n = 410,000); active = well fitted falling curve with a large enough effect; inconclusive = small, poorly fitted or top-dose-only effect; inactive = no such curve, though single readings can be large or run the other way; tested in HEK293T cells; further: nearly all actives have a fitted effect of over 45% in size; luciferase light after 4 h
* hit, by the source's call; ? = inconclusive; [ ] = remark or other dose. On the % scale 0 is the no-effect control and ±100 the full control effect; potency means the concentration at half of the fitted maximal effect.

no. | SMILES | StopGo reporter | RE007 growth inh
1 | NC(Cc1cnc[nH]1)c1csc(Nc2ccc(C(F)(F)F)cn2)n1 (configuration not stated) | -18% | -13%
2 | COC(=O)C1=C(C(=O)OC)[C@@H]2N(C)c3ccccc3[C@@]23C[C@@H](CO)N=C3N1 | -13% | 4%
3 | CCN(CC)C(=O)C1=C(C)N(Cc2ccccc2)C(=O)C(CC(=O)NC2CCCCC2)C1 (configuration not stated) | -21% | -3%
4 | CC(C)Nc1nc(Nc2ccc(C#N)cc2)c2sccc2n1 | 0% | -6%
5 | c1ccc(OCCNc2ccn3nc(-c4ccccc4)cc3n2)cc1 | 14% | -3%
6 | OC(c1cccc(Cl)c1)c1nc(-c2csc3ccccc23)cs1 (configuration not stated) | -1% | -16%[18.4 µM]
7 | Cc1nc2nc(C(F)(F)F)[nH]c2nc1C | -7% | 8%
8 | O=C(NNc1ccccc1)OCc1ccccc1 | 69%[activator] | 63%
9 | Cc1nc(C(F)(F)F)ccc1C(=O)N1CCC1(C)C(=O)Nc1ccc2c(c1)OCO2 (configuration not stated) | -16% | 2%
10 | CCCC[C@@H]1Cc2[nH][nH]c(=O)c2[C@H](c2ccc3ccccc3c2)O1 | -29% | -24%
11 | CCOC(=O)C[C@H]1c2cc(C(F)(F)F)ccc2S(=O)(=O)N1Cc1ccccc1 | 4% | -12%
12 | COc1ccc(C(=O)Cn2c(NCCCO)nc3ccccc32)cc1 | -16% | 2%
13 | Cc1ccc(NC(=O)c2sc3nc(N4CCOCC4)c4c(c3c2N)CCCC4)cc1 | 9% | -12%
14 | C#CCN(C[C@@H]1[C@@H](OC(=O)NCCCCCC)[C@@H](OC(=O)NCCCCCC)Cn2c(=O)ccc(=O)n21)S(=O)(=O)c1ccc(C)cc1 | 13µM* | -3%
15 | CNc1cnc(-c2ccc(C(=O)N3CCOCC3)cc2)cn1 | 27% | 11%
16 | CCc1ccc2cc(C)cc(C)c2n1 | -8% | 7%
17 | Cc1ccc(SCc2c(C(=O)N/N=C/c3cccs3)nnn2-c2nonc2N)cc1 | -1% | 3%
18 | CCOC(CNC(=O)c1[nH]c(C(F)(F)F)nc1-c1ccccc1)OCC | -10% | 0%
19 | COC(=O)C1=C(C)N(CCCC(=O)O)C(=O)NC1c1cccc2ccccc12 (configuration not stated) | -10% | -4%
20 | c1ccc(COc2ncnc3c2ncn3CCCNCc2ccccn2)cc1 | -5% | -7%
21 | CCc1nc2ccc(C(=O)NCCOc3ccc(OC)cc3)cn2c1N(CC)Cc1cccc(Br)c1 | ? | 5%
22 | O=C(Cc1csc2ccccc12)NCC1CC1 | 5% | 11%[18.4 µM]
23 | COCCNc1nc(NCCCN2CCCC2=O)c2sc(-c3ccccc3)cc2n1 | -19% | -21%
24 | Cc1ccc(C(=O)Nc2ccc3nc(C)sc3c2)o1 | 54%[activator] | -16%
25 | CCCS(=O)(=O)NC(=O)C1(C)CCN(C(=O)c2ccc(F)c(Cl)c2)C1 (configuration not stated) | -10% | 8%[18.4 µM]
26 | c1ccc(-c2nnc3oc(-c4cccs4)nn23)cc1 | 3% | -6%
27 | CCOC(=O)[C@]12CCC=C1N(Cc1ccco1)C(=O)[C@H](CC(=O)NCc1ccc(C)o1)C2 | -10% | 7%
28 | O=C(O)c1ccccc1-c1ccccc1C(=O)Nc1ccc2c(c1)C(O)c1ccccc1-2 (configuration not stated) | -23% | -2%
29 | CN1CCN(C(=O)C[C@@H]2C[C@H]3c4cc(NC(=O)c5cccnc5)ccc4O[C@H]3[C@H](CO)O2)CC1 | -21% | -7%
30 | CCOc1cc(C(=O)OC(C)C(=O)Nc2ccccc2OC)ccc1OCC(=O)N1CCOCC1 (configuration not stated) | -7% | -4%

Fetched by structure from above (2):
no. | SMILES | StopGo reporter | RE007 growth inh
28 | O=C(O)c1ccccc1-c1ccccc1C(=O)Nc1ccc2c(c1)C(O)c1ccccc1-2 (configuration not stated) | -23% | -2%
18 | CCOC(CNC(=O)c1[nH]c(C(F)(F)F)nc1-c1ccccc1)OCC | -10% | 0%

More records:
no. | SMILES | StopGo reporter | RE007 growth inh
31 | C[C@@H]1CN([C@H](C)CO)C(=O)CCCn2nncc2CO[C@H]1CN(C)C(=O)Nc1cccc(Oc2ccccn2)c1 | 1% | 1%
32 | Nc1nc2c(ncn2C2C[C@H](O)[C@@H](CO)O2)c(=O)[nH]1 (some centres not stated) | -19% | -9%
33 | CCOC(=O)C1(C)CCCN(C(=O)C(c2ccccc2)c2ccccc2)C1 (configuration not stated) | -25% | 6%
34 | COCCCN1C(=O)C(CC(=O)NC2CC2)CC(C(=O)N(C(C)C)C(C)C)=C1C (configuration not stated) | -19% | 16%
35 | COc1ccccc1C(CNC(=O)c1ccc(NS(=O)(=O)c2ccc(C(C)=O)cc2)cc1)N1CCCC1 (configuration not stated) | 8% | 5%
36 | Cc1cc(Cl)ccc1C(O)c1ncc(-c2cccc(F)c2)[nH]1 (configuration not stated) | 52%[activator] | -6%[18.4 µM]
37 | CCOC(=O)[C@]12CCCC=C1N(Cc1ccc3c(c1)OCO3)C(=O)[C@H](CC(=O)N1CCN(C(=O)C3CC3)CC1)C2 | ? | -17%
38 | CCOc1ccccc1NC(=O)CCNC(=O)C1CCN(S(=O)(=O)c2ccccc2)CC1 | -23% | -10%
39 | Cc1cccc(S(=O)(=O)N(C)C[C@@H]2OCc3cn(nn3)CCCC(=O)N([C@H](C)CO)C[C@H]2C)c1 | -4% | 33%
40 | CN(CCc1ccccc1)C(=O)c1ccc(NC(=O)Cc2ccc(NC(=O)C3CCCN(C(=O)C4CC4)C3)cc2)cc1 (configuration not stated) | ? | -11%
41 | CCOC(=O)C[C@@H]1OC2CCCCC2N1S(=O)(=O)c1ccc(C)cc1 (some centres not stated) | -10% | 12%
42 | CCOC(=O)CCCCCC(=O)Nc1ccc2c(c1)C(=O)N([C@H](C)CO)C[C@H](C)[C@@H](CN(C)C(=O)Nc1ccccc1)OCCCC[C@@H](C)O2 | -6% | 13%
43 | CCN(CC(=O)Nc1ccc(NC(C)=O)cc1)C(=O)c1cc(-c2ccccc2Cl)nc2ccccc12 | ? | 13%
44 | CCNC(=O)N(C)c1c(CC)nc2ccc(C(=O)Nc3cccc(OCC(=O)N(C)C)c3)cn12 | 2% | 14%
45 | CC(=O)Nc1ccc(-c2ccnc3c2CC(C)(C(=O)NCc2cccc(Cl)c2)O3)cc1 (configuration not stated) | -7% | -19%[18.4 µM]
46 | CCc1nc2c(OCC(=O)c3ccc(F)cc3)cccn2c1N(C)C(=O)COc1ccccc1 | -20% | 2%
47 | O=[N+]([O-])c1ccc(NN=C(C2CC2)C2CC2)c([N+](=O)[O-])c1 | -24% | -26%
48 | COC(=O)C[C@H]1CC[C@H](NC(=O)Nc2ccccc2F)[C@@H](CO)O1 | -11% | -3%
49 | COc1cc(CN2C[C@@H](CO)O[C@@H](n3cnc4c(NCc5ccco5)ncnc43)C2)cc(OC)c1OC | -2% | -5%
50 | Cc1cc(C)cc(SCc2noc(C(=O)NCC3CC3)c2C(=O)NCC2CC2)c1 | ? | 10%
51 | CC(C)c1ccc(C(=O)N2CCCC(c3cc(C(=O)Nc4ccc5c(c4)OCO5)no3)C2)cc1 (configuration not stated) | -7% | 4%[18.4 µM]
52 | CC(C)=CCC[C@H](C)C[C@@H]1CC2=C(C(=O)OC(C)(C)O2)[C@H](c2ccc(F)cc2)O1 | -27% | 1%
53 | Cc1ccc(S(=O)(=O)N(C)C[C@@H]2Oc3ncc(Br)cc3C(=O)N([C@H](C)CO)C[C@@H]2C)cc1 | 14% | 9%
54 | CCCCCC(=O)N1C[C@H](n2cc(COC(=O)c3ccccc3)nn2)[C@@H](O)C[C@@H]1c1ccc(Cl)cc1 | -28% | -10%
55 | COc1ccc(N2CCN(C(=O)C(=O)c3ccc(F)cc3)CC2)cc1 | 7% | 26%
56 | Cc1cccc2cc(C#N)c(NCCNC(=O)c3ccccc3)nc12 | -30% | -7%
57 | COC(=O)[C@@]12C[C@@H](CC(=O)N3CCN(C(=O)c4ccco4)CC3)C(=O)N(Cc3ccco3)C1=CCC(C)(C)C2 | -12% | 11%
58 | Cc1cccc(C)c1NC(=O)C(c1ccccc1)N1CCN(c2ccc(F)cc2)CC1 (configuration not stated) | -21% | 3%
59 | CC(=O)NCCNC(=O)C1(C)Cc2c(-c3ccccc3)ccnc2O1 (configuration not stated) | -23% | 9%
60 | Cc1ccc(S(=O)(=O)N2C[C@H]3C(=O)C[C@@H](c4cccs4)N(S(=O)(=O)c4ccc(C)cc4)[C@H]3C[C@H]2c2ccccc2)cc1 | -3% | -5%
61 | COc1ccc(NC(=O)C(c2ccnc3ccccc23)n2c(=O)c(-c3ccco3)nc3ccccc32)cc1 (configuration not stated) | -10% | 9%
62 | Cc1ccccc1-c1cnc(C(O)c2c(C)ccc3ccccc23)[nH]1 (configuration not stated) | 9% | -29%[18.4 µM]
63 | Cc1nnsc1C(=O)N1CCCC1(C)C(=O)O (configuration not stated) | 1% | 14%
64 | C[C@@H]1CN([C@@H](C)CO)C(=O)CCCn2nncc2CO[C@H]1CN(C)Cc1ccccc1C(F)(F)F | -18% | 31%
65 | OCCCn1c(C2CCCN2c2nc(-c3ccc(F)cc3)cs2)nc2cc(Cl)c(Cl)cc21 (configuration not stated) | 37%[activator] | -3%
66 | O=C(NC1CCN(Cc2ccccc2)CC1)c1cccc(NS(=O)(=O)c2ccc(Br)cc2)c1 | ? | -12%
67 | Cc1ccccc1NC(=O)Cc1nc(COC(=O)C(C)(C)Oc2ccc(Cl)cc2)cs1 | ? | -1%
68 | COc1ccc(-c2noc3c2-c2nc(C(C)C)sc2CC3)cc1 | -17% | -20%
69 | COc1ccccc1S(=O)(=O)N(C)C[C@H]1OCc2cnnn2CCCC(=O)N([C@@H](C)CO)C[C@H]1C | -23% | 0%
70 | CCOC(=O)[C@]12CCCC=C1N(Cc1cccc3ccccc13)C(=O)[C@H](CC(=O)N1CCSCC1)C2 | -3% | -3%
71 | CCOC(=O)c1cc2c(c(CCO)n1)[C@H](CCO)N(S(=O)(=O)C(C)(C)C)C2 | -18% | 7%
72 | COc1ccc(OC)c(CN2C(=O)CCC2(C)c2nnnn2Cc2ccccc2)c1 (configuration not stated) | -17% | -6%
73 | COc1ccc(-c2ccc(C(=O)Nc3cc(OC)c(OC)c(OC)c3)c3occc23)c(C)c1 | ? | -8%[18.4 µM]
74 | CC(C)=CCc1cc([C@@H]2COc3c(ccc4c3C=CC(C)(C)O4)C2)c(O)cc1O | ? | ?
75 | COc1ccc(CNC(=O)N2[C@H]3CC[C@@H]2C=C(c2ccc(F)cc2OCc2ccccc2)C3)cc1OC | ? | -8%
76 | FC(F)(F)Oc1ccccc1C(c1nnnn1Cc1ccccc1)N1CCN(C/C=C/c2ccccc2)CC1 (configuration not stated) | -11% | -15%
77 | CCCCn1c(=S)[nH]c2c(=O)n(C)c(=O)n(C)c21 | -12% | -10%
78 | CC(C)Oc1ccc(S(=O)(=O)N2CCOCC2)cc1NC(=O)CSc1nnc(C2CC2)n1C | -1% | 21%
79 | CCOC(=O)C1(C)CCCN(C(=O)c2cc(F)ccc2C)C1 (configuration not stated) | -4% | -9%
80 | COc1cccc(-c2cccc3c2NC(=O)C3(C)Cc2ccccc2F)c1 (configuration not stated) | -10% | 0%
81 | CC(C)c1ccc(CNC(=O)C2(C)CCCN2C)cc1 (configuration not stated) | -1% | 10%[18.4 µM]
82 | Cc1cccc(C(=O)N2CCC[C@H]2C(=O)N2CCC[C@H]2C(=O)NCc2ccncc2)c1 | -17% | 2%
83 | CC(C)N(C)c1ncnc2c1ncn2[C@H]1CN(Cc2ccncc2)C[C@@H](CO)O1 | -28% | 1%[18.4 µM]
84 | CSc1ccc(/C=N/NC(=O)c2ccc3nc[nH]c3c2)cc1 | 39%[activator] | -4%
85 | C[C@H](O)[C@@H]1CN2CCc3c([nH]c4ccccc34)[C@@H]2C[C@@H]1N(C)C(=O)c1ccco1 | -7% | 2%
86 | Cc1cc(C)n2c(Nc3ccc4c(c3)OCCO4)c(-c3ccccn3)nc2n1 | -13% | -14%
87 | Cc1cc2nc(-c3ccccc3)c(CC(C)(C)C)n2c(C)c1Br | -15% | -11%
88 | Cn1nccc1-c1coc2c(C(=O)NCc3ccccc3)cccc12 | 12% | -14%[18.4 µM]
89 | C/C(=N/O)c1ccc2ccc3ccccc3c2c1 | 0% | ?

Structures shown so far with an NH in an aromatic ring (10):
no. | SMILES | StopGo reporter | RE007 growth inh
1 | NC(Cc1cnc[nH]1)c1csc(Nc2ccc(C(F)(F)F)cn2)n1 (configuration not stated) | -18% | -13%
7 | Cc1nc2nc(C(F)(F)F)[nH]c2nc1C | -7% | 8%
10 | CCCC[C@@H]1Cc2[nH][nH]c(=O)c2[C@H](c2ccc3ccccc3c2)O1 | -29% | -24%
18 | CCOC(CNC(=O)c1[nH]c(C(F)(F)F)nc1-c1ccccc1)OCC | -10% | 0%
32 | Nc1nc2c(ncn2C2C[C@H](O)[C@@H](CO)O2)c(=O)[nH]1 (some centres not stated) | -19% | -9%
36 | Cc1cc(Cl)ccc1C(O)c1ncc(-c2cccc(F)c2)[nH]1 (configuration not stated) | 52%[activator] | -6%[18.4 µM]
62 | Cc1ccccc1-c1cnc(C(O)c2c(C)ccc3ccccc23)[nH]1 (configuration not stated) | 9% | -29%[18.4 µM]
77 | CCCCn1c(=S)[nH]c2c(=O)n(C)c(=O)n(C)c21 | -12% | -10%
84 | CSc1ccc(/C=N/NC(=O)c2ccc3nc[nH]c3c2)cc1 | 39%[activator] | -4%
85 | C[C@H](O)[C@@H]1CN2CCc3c([nH]c4ccccc34)[C@@H]2C[C@@H]1N(C)C(=O)c1ccco1 | -7% | 2%

Not all compounds are listed; the hit share may differ from the screen's.
